Screening data deposited in PubChem BioAssay by Broad Institute.
Vaccinia inh – blocks a specific stage of Vaccinia orthopoxvirus infection | Vaccinia-infected cells, mCherry/Venus stage reporter fluorescence; stronger effect = lower value; some inactives read as strong as hits | activity change (mCherry), % (test concentration not listed) | 89,000 compounds, 0.01% hits | AID 1053133;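 active = mCherry past -33% and 40 or more points under the early reporter, replicates agreeing; inconclusive = past -33% without that gap or agreement; tested in A549 cells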;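 note: scaled between vehicle wells and reference inhibitor wells; 23 nL library stock went into each well; one replicate is shown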
Vaccinia inh Venus – further read-out of Vaccinia inh, marked with its call; activity change (Venus), %; measured here: Venus reporter, other viral stage;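 negative = less Venus signal; first of two replicates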
Active calls of the source: *; ? = inconclusive; · = no result given. Not all compounds are listed. The share of hits here may be higher or lower than overall.

Every second line gives: Vaccinia inh | Vaccinia inh Venus
- C/C=C/c1ccc2c(c1)O[C@@H](CN(C)C)[C@H](C)CN([C@H](C)CO)S2(=O)=O
→ 9 | 4
- O=C(C[C@@H]1C=C[C@@H](NC(=O)C2CC2)[C@@H](CO)O1)NCc1ccccc1Cl
→ 3 | 2
- COc1ccc(-c2ccc([C@@H]3[C@@H](C#N)N(C(=O)C4CCC4)[C@@H]3CO)cc2)cc1
→ -2 | 0
- COc1cccc(-c2ccc([C@@H]3[C@@H](CO)N4CCCCN(S(=O)(=O)c5cn(C)cn5)C[C@H]34)cc2)c1
→ -4 | -5
- CCCC(=O)Nc1ccc2c(c1)C(=O)N(C)[C@@H]1CC[C@@H](CC(=O)NCc3ccccc3)O[C@@H]1CO2
→ -1 | -6
- CC(C)(C)[S@@](=O)N1Cc2cc(C(=O)N3CCc4ccccc4C3)nc(-c3cccc(-c4cccnc4)c3)c2[C@H]1CCO
→ -2 | 4
- CC(C)NC(=O)N(C)C[C@H]1Oc2ncc(C#CC3CC3)cc2C(=O)N([C@@H](C)CO)C[C@@H]1C
→ 6 | 1
- Cc1noc(C)c1NC(=O)N(C)C[C@H]1Oc2ccc(NC(=O)C3CC3)cc2C(=O)N([C@@H](C)CO)C[C@@H]1C
→ 6 | 1
- O=C(Nc1ccc(F)cc1)N1CC(=O)N2[C@H](C1)[C@@H](c1ccc(C#Cc3cccnc3)cc1)[C@@H]2CO
→ -12 | -11
- CO[C@@H]1CN(C)C(=O)c2cc(NC(=O)c3cnccn3)ccc2OC[C@@H](C)N(C(C)=O)C[C@@H]1C
→ 26 | 21
- C[C@@H]1CCCCO[C@H](CN(C)C(=O)C2CCCCC2)[C@@H](C)CN([C@H](C)CO)C(=O)c2cc(NC(=O)Cc3ccccc3)ccc2O1
→ 1 | 0
- COc1ccc(S(=O)(=O)N(C)C[C@@H]2Oc3ccc(N(C)C)cc3CC(=O)N([C@H](C)CO)C[C@H]2C)cc1
→ 8 | -3
- CN1c2ccc(C#Cc3ccc(F)cc3)cc2[C@H]2[C@H](CCN2S(=O)(=O)c2ccccc2F)[C@@H]1CO
→ -3 | -4
- COc1ccc(C#Cc2ccc3c(c2)[C@]2(C(=O)N3)[C@H](C(N)=O)[C@H]3C(=O)O[C@H](c4ccccc4)[C@H](c4ccccc4)N3[C@@H]2c2ccc(OCCO)cc2)cc1
→ -17 | -7
- C[C@@H]1CCCCO[C@H](CN(C)C(=O)Nc2cccc3ccccc23)[C@H](C)CN([C@@H](C)CO)C(=O)c2cc(NC(=O)Nc3ccc4c(c3)OCO4)ccc2O1
→ 20 | 12
- CO[C@@H]1CN(C)C(=O)c2ccc(NS(=O)(=O)c3ccccc3Cl)cc2OC[C@H](C)NC[C@@H]1C
→ 6 | -1
- C[C@H](CO)N1C[C@H](C)[C@@H](CN(C)C)Oc2ccc(NS(=O)(=O)c3ccccc3)cc2CC1=O
→ 8 | 6
- Cc1noc(C)c1S(=O)(=O)Nc1cccc2c1O[C@@H](CN(C)Cc1ccc(C(F)(F)F)cc1)[C@@H](C)CN([C@@H](C)CO)C2=O
→ 7 | 1
- C[C@@H]1CN([C@H](C)CO)C(=O)c2cccc(NC(=O)Nc3ccccc3)c2O[C@H]1CN(C)S(C)(=O)=O
→ 3 | 3
- C[C@@H]1CN([C@@H](C)CO)S(=O)(=O)c2ccc(-c3ccccc3)cc2O[C@@H]1CN(C)Cc1ccccn1
→ -26 | -23
- O=C(c1ccncc1)N1CCCCN2[C@H](CO)[C@@H](c3ccc(C#Cc4ccccn4)cc3)[C@H]2C1
→ 15 | 11
- CO[C@@H]1CN(C)C(=O)c2cc(NC(C)=O)ccc2OC[C@H](C)N(CCc2ccccc2)C[C@@H]1C
→ -5 | -8
- CCC(=O)Nc1ccc2c(c1)OC[C@H](C)N(C(=O)c1ccccn1)C[C@@H](C)[C@H](OC)CN(C)C2=O
→ -5 | 5
- O=C(Cc1cccnc1)N1CC2(C1)[C@@H](c1ccccc1)[C@H](CO)N2C(=O)C1CCOCC1
→ 9 | 6
- Cc1noc(C)c1S(=O)(=O)Nc1ccc2c(c1)C(=O)N([C@@H](C)CO)C[C@H](C)[C@@H](CN(C)Cc1ccc(C(=O)Nc3ccccc3N)cc1)OCCCC[C@@H](C)O2
→ -11 | -11
- CO[C@H]1CC[C@H]2CCOc3c(C#N)cccc3C(=O)N(C)C[C@@H](C)C(=O)N(C)C[C@@H]1O2
→ 7 | 1
- O=C(C[C@H]1C[C@H]2c3cc(NC(=O)c4cccnc4)ccc3O[C@H]2[C@H](CO)O1)NCC(F)(F)F
→ 1 | -2
- O=C(C1CCCC1)N1CC[C@@H]2[C@@H](CO)Nc3ccc(Br)cc3[C@@H]21
→ -21 | -12
- O=C(Nc1cc(F)ccc1F)N1CC(=O)N2[C@H](CO)[C@H](c3ccc(-c4ccc(F)cc4)cc3)[C@@H]2C1
→ -14 | -14
- COc1cccc(C#Cc2ccc([C@H]3[C@@H](CO)N(C(=O)C4CCCC4)[C@H]3C#N)cc2)c1
→ -10 | -11
- O=C(C[C@H]1CC[C@H]2[C@@H](COC[C@@H](O)CN2Cc2nccs2)O1)NCc1ccc(Cl)cc1
→ -6 | -7
- O=C(Cc1ccccn1)N[C@@H]1CC[C@@H](CCNS(=O)(=O)c2cccc(F)c2)O[C@@H]1CO
→ 2 | 5
- C[C@@H]1CN([C@H](C)CO)C(=O)c2cc(NC(=O)c3ccncc3)ccc2O[C@@H]1CN(C)C(=O)Nc1ccc2c(c1)OCO2
→ 43 | 25
- O=C(c1ccccn1)N1CC[C@@H]2[C@H](CO)Nc3ccc(-c4ccccc4F)cc3[C@@H]21
→ -34 | -23
- C[C@@H]1CN([C@@H](C)CO)S(=O)(=O)c2ccc(C#CC(C)(C)O)cc2O[C@H]1CN(C)C
→ 1 | -6
- O=C(C1CC1)N1CC[C@@H]2[C@@H](CO)Nc3ccc(-c4ccc(F)cc4)cc3[C@@H]21
→ 12 | 3
- COc1ccc(CN(C)C[C@@H]2Oc3ccc(NC(=O)NC4CCCCC4)cc3C(=O)N([C@@H](C)CO)C[C@H]2C)cc1
→ 9 | 7
- CC(C)NC(=O)N(C)C[C@@H]1Oc2ccc(NC(=O)Nc3ccc(C(F)(F)F)cc3)cc2CC(=O)N([C@@H](C)CO)C[C@H]1C
→ -4 | -4
- CC(C)CC#Cc1ccc2c(c1)O[C@H](CN(C)Cc1ccncc1)[C@H](C)CN([C@H](C)CO)S2(=O)=O
→ ? | ·
- COc1ccc(-c2ccc3c(c2)O[C@H](CN(C)C(C)=O)[C@@H](C)CN([C@H](C)CO)S3(=O)=O)cc1
→ 4 | 6

The final 7 records of the section above lead into the next:
Every second line gives: Vaccinia inh | Vaccinia inh Venus
- O=C(c1ccccn1)N1CC[C@@H]2[C@H](CO)Nc3ccc(-c4ccccc4F)cc3[C@@H]21
→ -34 | -23
- C[C@@H]1CN([C@@H](C)CO)S(=O)(=O)c2ccc(C#CC(C)(C)O)cc2O[C@H]1CN(C)C
→ 1 | -6
- O=C(C1CC1)N1CC[C@@H]2[C@@H](CO)Nc3ccc(-c4ccc(F)cc4)cc3[C@@H]21
→ 12 | 3
- COc1ccc(CN(C)C[C@@H]2Oc3ccc(NC(=O)NC4CCCCC4)cc3C(=O)N([C@@H](C)CO)C[C@H]2C)cc1
→ 9 | 7
- CC(C)NC(=O)N(C)C[C@@H]1Oc2ccc(NC(=O)Nc3ccc(C(F)(F)F)cc3)cc2CC(=O)N([C@@H](C)CO)C[C@H]1C
→ -4 | -4
- CC(C)CC#Cc1ccc2c(c1)O[C@H](CN(C)Cc1ccncc1)[C@H](C)CN([C@H](C)CO)S2(=O)=O
→ ? | ·
- COc1ccc(-c2ccc3c(c2)O[C@H](CN(C)C(C)=O)[C@@H](C)CN([C@H](C)CO)S3(=O)=O)cc1
→ 4 | 6
- O=C(NCc1ccccc1)[C@H]1[C@H](CO)[C@H]2Cn3c(cccc3=O)[C@@H]1N2Cc1cccnc1
→ 6 | 1
- CC=Cc1ccc2n(c1=O)C[C@H]1[C@H](CO)[C@@H](C(=O)N[C@@H](C)c3ccccc3)[C@@H]2N1CC1CC1 (mixture of isomers)
→ 8 | -4
- CO[C@H]1CN(C)C(=O)c2ccc(NC(=O)c3cnccn3)cc2OC[C@H](C)N(C)C[C@@H]1C
→ 3 | -1
- COc1ccc(CN2CC3(CN(C(=O)c4ccccc4)C3)c3c([nH]c4cc(OC)ccc34)[C@@H]2CO)cc1
→ 2 | -4
- C[C@@H]1CN([C@H](C)CO)C(=O)c2cc(-c3ccccc3)cnc2O[C@H]1CN(C)C(=O)C1CCOCC1
→ 10 | -1
- COc1ccc(NC(=O)Nc2ccc3c(c2)[C@@H]2C[C@H](CC(=O)N4CCN(C)CC4)O[C@@H](CO)[C@@H]2O3)cc1
→ 1 | 1
- O=C(Cc1ccccc1)N1C[C@H]2[C@@H](c3ccccc31)[C@H](CO)N2Cc1ccccc1
→ -3 | 8
- COc1ccccc1CNC(=O)C[C@H]1C[C@H]2c3cc(NC(=O)NC4CCCC4)ccc3O[C@H]2[C@@H](CO)O1
→ 7 | 2
- C[C@H]1CN([C@@H](C)CO)C(=O)c2cc(NS(=O)(=O)c3ccc(Cl)cc3)ccc2O[C@@H]1CN(C)Cc1ccc(Oc2ccccc2)cc1
→ ? | ·
- O=C(C[C@H]1CC[C@H]2[C@@H](COC[C@@H](O)CN2C(=O)c2ccccc2F)O1)NCc1ccccc1
→ 7 | -1
- COc1ccccc1NC(=O)N1CC(=O)N2[C@H](C1)[C@@H](c1ccc(C#CC3CC3)cc1)[C@@H]2CO
→ -15 | -5
- COc1ccc(CN(C)C[C@H]2Oc3ccc(NC(=O)CCC(F)(F)F)cc3C(=O)N([C@H](C)CO)C[C@@H]2C)cc1
→ 4 | -2
- O=C(CCN1CCCCC1)N[C@@H]1CC[C@@H](CCn2cc(-c3ccc(F)cc3)nn2)O[C@@H]1CO
→ 21 | 17
- CN(C)c1ccc2c(c1)[C@@H]1C[C@@H](CC(=O)NCc3ccc(Oc4ccccc4)cc3)O[C@H](CO)[C@@H]1O2
→ ? | ·
- CCC(=O)N[C@@H]1CC[C@@H](CCn2cc(CN(C)C)nn2)O[C@H]1CO
→ 3 | 5
- CNC[C@H]1Oc2c(NC(=O)NC(C)C)cccc2C(=O)N([C@H](C)CO)C[C@H]1C
→ 13 | 8
- O=C(C1CCCC1)N1CCCCN2[C@H](C1)[C@H](c1ccc(C#CC3CC3)cc1)[C@@H]2CO
→ -32 | -19
- COc1cccc(S(=O)(=O)N2C[C@@H](O)COC[C@@H]3O[C@@H](CC(=O)N4CCN(C)CC4)CC[C@H]32)c1
→ 14 | 6
- C[C@H](O)C#Cc1ccc2c(c1)O[C@@H](CN(C)Cc1ccccc1)[C@@H](C)CN([C@H](C)CO)S2(=O)=O
→ 13 | 8
- O=C(C[C@H]1C[C@H]2c3cc(NC(=O)NC4CCCCC4)ccc3O[C@H]2[C@@H](CO)O1)NC1CCCCC1
→ 13 | 7

The list continues:
SMILES,Vaccinia inh,Vaccinia inh Venus
C[C@H]1CN([C@@H](C)CO)C(=O)c2cccc(NC(=O)c3ccc(-c4nccs4)cc3)c2O[C@@H]1CN(C)S(=O)(=O)c1cn(C)cn1,2,-2
O=C(C1CCCC1)N1CC(=O)N2[C@H](CO)[C@@H](c3ccc(C#CCc4ccccc4)cc3)[C@@H]2C1,-2,-6
CCCNC(=O)N(C)C[C@@H]1Oc2cc(-c3ccc(C)cc3)ccc2S(=O)(=O)N([C@H](C)CO)C[C@@H]1C,-15,-16
Cc1ccc(S(=O)(=O)Nc2ccc3c(c2)C(=O)N([C@H](C)CO)C[C@@H](C)[C@@H](CN(C)CC2CCCCC2)OCCCC[C@@H](C)O3)cc1,?,·
O=C(C[C@H]1CC[C@H]2[C@@H](COC[C@H](O)CN2C(=O)Nc2cc(Cl)cc(Cl)c2)O1)N1CCCCC1,?,·
C[C@@H]1CN([C@H](C)CO)C(=O)c2cc(C#Cc3ccccn3)cnc2O[C@@H]1CN(C)Cc1cncnc1,21,24
CNC[C@@H]1Oc2ccc(N(C)C)cc2C(=O)N([C@@H](C)CO)C[C@H]1C,-3,-3
CC(=O)NC[C@H]1[C@@H](c2ccc(-c3ccccc3)cc2)[C@H](CO)N1C(=O)C1CCC1,4,10
OC[C@@H]1[C@H](c2ccc(-c3ccccc3F)cc2)[C@@H]2CN(Cc3cncnc3)CCCCN12,2,1
CNC[C@H]1Oc2ccc(NC(=O)CCN3CCOCC3)cc2CC(=O)N([C@H](C)CO)C[C@H]1C,5,23
Cc1cccc(S(=O)(=O)N2CCCCN3[C@@H](CO)[C@H](c4ccc(C#CC(C)C)cc4)[C@@H]3C2)c1,?,·
O=C(c1ccccc1F)N1C[C@H]2[C@@H](c3ccccc31)[C@@H](CO)N2C(=O)C1CCCC1,21,23
C[C@@H]1CN([C@@H](C)CO)C(=O)c2cc(NS(=O)(=O)c3cn(C)cn3)ccc2O[C@@H](C)CCCCO[C@H]1CN(C)CC1CCCCC1,21,11
COc1ccc(NC(=O)N(C)C[C@H]2Oc3ccc(NC(=O)c4ccncc4)cc3C(=O)N([C@H](C)CO)C[C@H]2C)cc1,5,3
C/C=C/c1ccc2c(c1)[C@H]1[C@H](CCN1C(=O)C1CC1)[C@@H](CO)N2,25,12
CC(=O)N(C)C[C@H]1Oc2ncc(C#CC3(O)CCCC3)cc2C(=O)N([C@@H](C)CO)C[C@H]1C,12,4
COc1ccc(S(=O)(=O)N(C)C[C@@H]2Oc3ccc(NC(=O)C4CCCCC4)cc3C(=O)N([C@@H](C)CO)C[C@@H]2C)cc1,-17,-5
CNC(=O)C[C@H]1CC[C@H]2[C@H](COc3ccc(NC(=O)Nc4ccccc4OC)cc3C(=O)N2C)O1,1,0
C[C@H](CO)N1C[C@H](C)[C@H](CN(C)C(=O)Nc2ccc(F)cc2)OCCCC[C@H](C)Oc2ccc(NS(=O)(=O)c3cccs3)cc2C1=O,-26,-26
NCC[C@@H]1CC[C@@H](NC(=O)C2CCCC2)[C@@H](CO)O1,-8,0
C[C@H]1CN([C@@H](C)CO)C(=O)c2cc(-c3ccc(C#N)cc3)cnc2O[C@@H]1CN(C)C(=O)c1cccnc1,?,·
CCC(=O)N[C@@H]1CC[C@@H](CC(=O)NCc2ccccc2OC)O[C@@H]1CO,2,-4
